# Bead autofluor = flagged as autofluorescent in microsphere protease counterscreen. compound autofluorescence counterscreen, microsphere flow cytometry; stronger effect = higher value. fluorescence intensity (concentration not given with the values). 360,000 compounds, 3.1% hits;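 active means at least 3 SD above the mean of all compounds, about 16000 in these data; inconclusive means too few beads counted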;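 further: 100 nL of 1 mM stock went into each well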
# RN4220 kill = kills Staphylococcus aureus RN4220; 330,000 compounds, 0.33% hits; inhibition, % (test concentration not listed); AID 1259311; S. aureus RN4220 growth, OD600, 16 h;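 active means z-score of -3 or lower and OD600 up to 0.18 on both plates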;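 further: plate controls were untreated cells for no effect and reference antibiotic for full effect; stock transfer was 100 nL into about 80 µL; one replicate is shown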
# BJeLR viability = kills HRASV12-expressing BJeLR cells. BJeLR (HRASV12) viability, CellTiter-Glo ATP luminescence, 48 h; reference of the scale not given here. inhibition, % (test concentration not listed). 300,000 compounds, 0.17% hits. AID 1554;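 active means replicate mean above 50%; inconclusive means above 50% but judged a plate artefact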;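 further: 50 nL library stock added to about 25 µL; numbers are from one replicate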
# Mtb hypoxia rep = inhibitors of hypoxia-regulated fluorescent reporter in Mycobacterium tuberculosis; 300,000 compounds, 0.1% hits; fluorescence inhibition, % (test concentration not listed); M. tuberculosis hypoxia-regulated fluorescent reporter, fluorescence;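 active means 35 to 45% if threefold the growth effect, above 45% if 1.5-fold the growth effect; inactive means the rest, general growth blockers included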;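 further: wells of about 50 µL received 100 nL stock; 0% = vehicle wells and 100% = reference inhibitor wells; whole bacteria with a GFP reporter of the hypoxia response; strong numbers were not always called active; many hits fall short of the cut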
# ugtP null kill = growth inhibition of S. aureus ugtP deletion strain; S. aureus RN4220 ugtP deletion, OD600 growth, 16 h; some inactives read as strong as hits; growth inhibition, % (test concentration not listed); 330,000 compounds, 0.54% hits;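 active means z-score under -3 and OD600 up to 0.15 on both plates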;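 further: plate controls were untreated wells for no effect and antibiotic for full effect; wells of about 80 µL received 100 nL stock; the first replicate is given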
# PrP UTR inh = inhibition of PrP 5' UTR reporter expression; cell-based PrP 5' UTR mRNA reporter, plate reader; inhibition, % (no concentration beside the values); 340,000 compounds, 0.35% hits; AID 488862;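 active means every replicate at 50% or more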;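 further: 0 = median of the neutral control wells; tested in H4 reporter cells; numbers are from one replicate; inactives centre near -14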
# Mtb hypoxia rep growth = second read-out of Mtb hypoxia rep, no call of its own (marks repeat the call); growth inhibition, %; measured here: M. tuberculosis growth (absorbance);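 0% = vehicle and 100% = reference antibiotic; read after six days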
# Numbers without * were called inactive; ? = inconclusive; nt = no result given.
SMILES,Bead autofluor,RN4220 kill,BJeLR viability,Mtb hypoxia rep,Mtb hypoxia rep growth,ugtP null kill,PrP UTR inh
O=C(Cc1cccs1)Nc1nc(-c2ccccc2)cs1,15834,-4.1,-2.5,2.7,10.4,40.0,-39.0
Cc1cc(C)c2c(=O)cc(C(F)F)oc2c1,2576,3.2,-0.3,nt,nt,-2.3,-14.3
CNC(=S)NN(c1ccccc1)c1ccccc1,8420,2.5,-6.2,3.5,-0.4,11.8,-11.8
CC(NC(=O)Nc1ccc([N+](=O)[O-])cc1)C(c1cccs1)N1CCCC1 (stereo unspecified),4779,-0.4,-14.3,-1.1,5.5,9.1,-17.7
COC(=O)c1cc(S(=O)(=O)N2CCC(C)CC2)cn1C,5747,2.4,-3.1,8.0,7.4,5.4,5.0
CCOC(=O)C1C2COc3ccc(C)cc3C2N2C(=O)CN(CC3CCCO3)C(=O)[C@@]12C (stereo partly specified),nt,4.7,nt,15.3,11.9,5.3,nt
O=C(c1ccco1)N1CCN(S(=O)(=O)c2cc(Cl)ccc2Cl)CC1,3500,6.1,0.5,11.6,-0.1,5.1,-6.6
C[C@H](NC(=O)c1nc[nH]c1C(=O)N1CCc2ccccc2C1)C(=O)OCc1ccccc1,3792,nt,-3.8,nt,nt,nt,11.4
CCOC(=O)N1CCN(C(=O)c2ccc(NC(=O)c3ccc(C)cc3)cc2)CC1,2138,5.5,0.1,nt,nt,5.7,-4.5
CCOC(=O)c1nn(-c2ccccc2)c(=O)cc1OCC(=O)Nc1cccc(OC)c1,4525,1.7,-11.6,0.4,-1.5,-0.9,-21.5
Cc1ccc(S(=O)(=O)N2CCCCC2CCNC(=O)C(=O)NCc2ccco2)cc1 (stereo unspecified),5664,0.8,15.2,5.0,11.3,5.2,-9.2
O=C(CSc1nnc(CNC(=O)c2ccccc2)o1)c1ccc(Cl)cc1,5299,2.5,-7.2,8.8,3.4,2.7,-18.6
CC1CN=C(N(C(=O)Nc2ccccc2)C(C)c2ccccc2)S1 (stereo unspecified),4110,-1.2,0.6,1.5,-2.6,13.2,-12.8
CC(=O)N1c2ccc(S(=O)(=O)N(C)c3cc(C)ccc3C)cc2CC1C (stereo unspecified),3413,14.7,-0.6,-12.1,1.3,12.4,-8.6
CCN(CC(N)=O)S(=O)(=O)c1ccc(F)cc1,4556,-4.0,2.9,-5.6,1.8,-6.8,-27.0
COc1cc(/C=C/C(=O)OCC(=O)N2CCC(C)CC2)ccc1OCC#N,3478,2.4,nt,10.4,2.4,8.2,-3.6
COc1cc(OC)c(OC)cc1/C=C/c1cc(C(F)(F)F)[nH]c(=O)n1,2972,nt,-0.8,nt,nt,nt,-20.5
N#CCCNS(=O)(=O)c1ccc(C(=O)OCC2CCCCC2)cc1,3205,1.4,-9.5,-1.2,-6.8,-2.3,-0.4
Cc1ccc(SCC(=O)N2CCCC2)cc1,3073,7.6,-4.1,nt,nt,13.4,-25.0
CN(CCCN1CCOCC1)Cc1cn(C)nc1-c1ccccc1F,4050,13.4,23.9,-4.7,-1.7,4.5,-24.2
CCOC(=O)C1=C(C)NC(C)=C(C(=O)OCC)C1c1nc2ccccc2[nH]1,nt,1.0,-0.3,nt,nt,-11.6,nt
Cc1cccc(Nc2nc3c(c(=O)n(C)c(=O)n3C)n2CC(O)CO)c1 (stereo unspecified),3024,0.5,7.4,nt,nt,-4.0,-27.5
N#Cc1nc(-c2cccc(Cl)c2)oc1N1CCC(C(N)=O)CC1,3633,-0.4,4.1,8.2,4.2,11.0,-19.6
CCOc1ccc(-n2cc(-c3ccc(OC)c(OC)c3)[nH]c2=S)cc1,5204,3.3,2.9,nt,nt,15.2,-17.4
CCOc1ccc(/C=N/n2c(C)nc3ccccc3c2=O)cc1,3485,nt,-2.9,nt,nt,nt,-8.2
O=C(Nc1nccs1)c1ccc(S(=O)(=O)NCc2cccs2)cc1,10150,1.9,-11.3,-1.8,2.7,-15.8,-61.6
CCCOc1ccc(N2C(=O)CC(SCCN)C2=O)cc1 (stereo unspecified),5235,-3.4,5.5,-1.2,11.4,-11.6,-35.0
CCOc1c(Cl)cc(C(=O)Nc2ccccc2-c2ccccc2)cc1Cl,3561,20.7,11.3,-5.4,2.4,11.3,-6.2
Cc1cc2ccccn2c1C(=O)c1nc(NCc2ccco2)ncc1Cl,2021,6.7,3.0,7.8,1.3,13.2,-22.8
CC(OC(=O)c1cccc(S(=O)(=O)N2CCOCC2)c1)C(=O)NC1CCCCC1C (stereo unspecified),3529,5.1,nt,10.8,8.6,3.7,-5.3
CC(=NNC(=O)c1cc(-c2cccnc2)nc2ccccc12)c1ccc(O)cc1O,nt,-6.0,nt,2.2,2.9,5.7,nt
COC(=O)c1ccc(-c2ncc(-c3cccc4ccccc34)o2)cc1,4797,-11.0,0.4,nt,nt,13.5,-9.6
Cc1ccc(CNC(=O)C2CCN(C(=O)Nc3ccccc3)CC2)cc1,5476,2.6,3.2,1.8,10.6,9.4,-11.0
COC(=O)C1CCN(c2ccc([N+](=O)[O-])cc2)CC1,4560,5.8,1.7,8.9,6.9,6.0,-11.8
C=CCNC(=O)Cn1nnc(-c2ccc(-c3ccc(OC)cc3)cc2)n1,nt,8.0,-3.6,18.4,-60.8,6.6,-41.2
COc1ccc2c(c1)CC/C(=C/c1ccncc1)C2=O,6877,10.5,13.3,8.7,5.6,0.5,-28.3
CC(C)NC(=O)N(C)CC1Oc2ccc(NC(=O)C3CCCCC3)cc2C(=O)N(C(C)CO)CC1C (stereo unspecified),nt,0.7,nt,-9.4,2.6,0.4,nt
Cc1nn(C)cc1CNC(=O)CCC(=O)O,3220,2.2,1.9,-2.3,4.9,-0.3,-11.2
Cc1ccc(Cn2c(C)c3cnn(CC(=O)NCc4ccccn4)c(=O)c3c2C)cc1,5212,3.1,-2.0,2.6,1.2,-4.2,-11.6
CS(=O)c1ccccc1COC(=O)Nc1ccccc1 (stereo unspecified),3365,3.0,-7.6,12.6,3.0,2.5,-27.0
O=C1CCN(Cc2cccnc2)CCN1C(CO)Cc1ccccc1 (stereo unspecified),nt,3.9,nt,2.7,-3.4,-2.8,nt
N#Cc1ccccc1OCC(=O)OCC(=O)c1ccc[nH]1,3148,5.2,nt,2.1,3.0,3.8,-14.9
C/C(=N\Nc1ccc([N+](=O)[O-])cc1[N+](=O)[O-])c1ccc(-n2nncc2C(C)(C)C)cc1,2508,nt,3.8,nt,nt,nt,-2.1
C=CCn1c(NCc2ccccc2O)nc2ccccc21,2781,2.4,6.1,14.9,5.1,10.7,-61.5
O=C(Nc1ncccc1O)c1ccc2c(c1)OCO2,5875,-0.4,-2.1,-5.1,8.8,-0.3,-46.1

# Filtered by structure, those above containing a thiophene ring, fused or not
SMILES,Bead autofluor,RN4220 kill,BJeLR viability,Mtb hypoxia rep,Mtb hypoxia rep growth,ugtP null kill,PrP UTR inh
O=C(Cc1cccs1)Nc1nc(-c2ccccc2)cs1,15834,-4.1,-2.5,2.7,10.4,40.0,-39.0
CC(NC(=O)Nc1ccc([N+](=O)[O-])cc1)C(c1cccs1)N1CCCC1 (stereo unspecified),4779,-0.4,-14.3,-1.1,5.5,9.1,-17.7
O=C(Nc1nccs1)c1ccc(S(=O)(=O)NCc2cccs2)cc1,10150,1.9,-11.3,-1.8,2.7,-15.8,-61.6

# Further records follow.
SMILES,Bead autofluor,RN4220 kill,BJeLR viability,Mtb hypoxia rep,Mtb hypoxia rep growth,ugtP null kill,PrP UTR inh
CN(c1ccc(OCc2ccc([N+](=O)[O-])cc2)cc1)S(=O)(=O)c1ccccc1,4288,8.0,-3.3,9.5,-0.3,5.2,-7.1
CCC1(C)Cc2ccccc2C(=O)N1 (stereo unspecified),4532,3.8,2.1,-1.4,5.4,11.7,-16.9
COc1ccccc1CCNCc1ccc(OC)c(OC)c1OC,3555,-1.4,1.5,15.3,9.0,9.8,-18.5
CN(C(=O)C=Cc1ccco1)c1ccccc1,3980,5.5,nt,11.9,12.1,5.1,-12.4
N#Cc1ccc(C(=O)Nc2cccc3ncccc23)c(F)c1,2401,-2.1,-5.4,-1.5,2.4,7.0,6.5
CCOC(=O)N1CCN(C(=O)C(C)SCc2ccccc2)CC1 (stereo unspecified),5883,3.9,3.7,10.1,15.9,0.7,-0.5
c1ccc2c(Oc3ccc4c(c3)OCO4)nncc2c1,3492,-7.8,1.3,20.1,6.1,-4.3,-41.0
CN(C)Cc1c(O)ccc2occ(C(=O)c3ccc(F)cc3)c12,3617,nt,-3.1,nt,nt,nt,-20.1
CCCc1cc(=O)n2[nH]c(NCc3c(F)cccc3Cl)nc2n1,2251,1.7,2.7,nt,nt,4.9,-8.0
COc1ccc(NC(=O)Nc2cccc(C)n2)c(OC)c1,3543,1.7,6.9,10.5,5.1,-2.3,-4.5
COCCn1c(-c2cc(OC)c(OC)c(OC)c2)nc2oc3cc(OC)ccc3c(=O)c2c1=O,nt,7.3,-6.8,-1.2,-3.6,1.4,nt
COc1cccc(CNC(=O)CCc2nnc3ccc(NCCCN4CCCC4=O)nn23)c1,4589,2.0,3.3,5.5,-1.8,1.2,-13.0
COc1ccc(CCC(=O)Nc2ccc(N3CCOCC3)c(S(=O)(=O)Nc3ccc(OC)cc3)c2)cc1,3600,2.4,nt,-0.8,-0.7,4.7,-10.5
O=S(=O)(Nc1ccncc1)c1ccc(Cl)c(Cl)c1,3182,2.0,-9.7,-1.0,-4.9,4.3,-5.1
CCOC(=O)c1ccc(NS(=O)(=O)c2ccc3c(c2)CCCN3C(C)=O)cc1,3461,2.0,3.3,0.0,0.0,14.5,-2.7
O=C(CC1(O)C(=O)N(Cc2ccccc2)c2ccccc21)c1ccc2c(c1)OCO2 (stereo unspecified),?,4.7,2.8,11.4,6.0,-8.3,-21.6
COc1cccc(-c2nc(CS(=O)CC(=O)N3CCC4(CC3)OCCO4)c(C)o2)c1 (stereo unspecified),21075*,3.7,-2.6,2.9,7.6,1.2,-43.7
Cn1nc(CC(=O)NCc2cccc3ccccc23)c2ccccc2c1=O,2418,3.2,4.6,nt,nt,5.0,2.1
CC(C)C[C@H](NC(=O)c1nc[nH]c1C(=O)NC1CCN(C(=O)OC(C)(C)C)CC1)C(=O)OC(C)(C)C,4097,nt,-3.7,nt,nt,nt,-17.2
Oc1ccc(-c2nc3c4c(ncn3n2)-c2ccccc2CC42CCCC2)cc1,2108,-9.1,-1.9,4.0,3.3,22.8,-5.1
CC(=O)NCC1CCN(C(=O)C2CCC(=O)N(CCc3cccc(F)c3)C2)CC1 (stereo unspecified),5585,4.6,-7.6,3.0,0.4,-0.5,-2.8
CCN(CC)c1ccc(NC2=C(Cl)C(=O)c3ccccc3C2=O)cc1,7517,18.3,nt,6.0,13.8,4.4,-8.2
C=CC1C(OC2OC(CO)C(O)C(O)C2O)OC=C(C(=O)OC)C1CC1CC(=O)CC(CC(=O)CCc2ccc(O)cc2)O1 (stereo unspecified),4772,6.5,3.7,nt,nt,6.5,-7.7
COC(=O)C1CCC(C)(C(=O)Nc2ccccc2)C1(C)C (stereo unspecified),6752,0.5,9.6,8.0,0.2,3.1,-3.4
CCOC(=O)C(Cc1ccccc1)NC(=O)Cn1nnc(-c2ccc(SC)cc2)n1 (stereo unspecified),3253,-9.0,6.4,5.2,8.5,-2.1,2.6
CCCCn1nnnc1SCC(=O)Nc1ccc(F)cc1,3558,6.1,-0.2,nt,nt,10.3,-6.2
O=C(CC(=O)NCCc1ccccc1)NCCc1ccccc1,5917,2.5,-3.3,7.9,7.1,6.3,-10.8
Cc1oc2c(Cl)c(Cl)c(O)c(CN(C)C)c2c1C(=O)c1ccc(Cl)cc1,4167,1.3,7.5,1.4,11.4,3.4,-6.7
COc1ccccc1Nc1cc(C(=O)NC2CCCC2)c2ccccc2n1,4474,3.1,-3.0,9.1,-1.3,8.8,-12.4
COc1cccc(OC)c1C(=O)n1nc(C)cc1C,9674,4.7,-12.9,4.5,4.7,11.8,-12.3
CC(C)CC(=O)NC(=S)N1CCCCCC1,3089,5.8,-3.3,16.4,3.0,5.5,-13.7
CCCCOC(=O)C1=C(C)NC2(O)c3ccccc3C(=O)C12O (stereo unspecified),2816,-17.4,5.6,2.1,-6.1,-1.3,-5.8

# Quoted from the results shown for reference:
SMILES,Bead autofluor,RN4220 kill,BJeLR viability,Mtb hypoxia rep,Mtb hypoxia rep growth,ugtP null kill,PrP UTR inh
O=C(CC1(O)C(=O)N(Cc2ccccc2)c2ccccc21)c1ccc2c(c1)OCO2 (stereo unspecified),?,4.7,2.8,11.4,6.0,-8.3,-21.6
COc1cccc(-c2nc(CS(=O)CC(=O)N3CCC4(CC3)OCCO4)c(C)o2)c1 (stereo unspecified),21075*,3.7,-2.6,2.9,7.6,1.2,-43.7
